# KCNQ2 enhance: potentiators of rat KCNQ2 potassium channel; hit rate 0.54% among 310,000; B-score at 10 µM; CHO-K1 KCNQ2, FluxOR thallium flux fluorescence; hits give high values; AID 2239;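 active = fluorescence ratio B-score at least 3 SD of library B-scores, with initial fluorescence B-score within 3 SD, cut at about 5.3 in these data; same plate scores as AID 2156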;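 also: B-score of peak minus minimum over baseline fluorescence ratio after K+ and Tl+ stimulus; positive B-score means potentiation of KCNQ2 with more thallium influx and brighter signal; only the inactives scoring about 0 or higher are listed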
# Target sequence (O88943 whole entry, looked up): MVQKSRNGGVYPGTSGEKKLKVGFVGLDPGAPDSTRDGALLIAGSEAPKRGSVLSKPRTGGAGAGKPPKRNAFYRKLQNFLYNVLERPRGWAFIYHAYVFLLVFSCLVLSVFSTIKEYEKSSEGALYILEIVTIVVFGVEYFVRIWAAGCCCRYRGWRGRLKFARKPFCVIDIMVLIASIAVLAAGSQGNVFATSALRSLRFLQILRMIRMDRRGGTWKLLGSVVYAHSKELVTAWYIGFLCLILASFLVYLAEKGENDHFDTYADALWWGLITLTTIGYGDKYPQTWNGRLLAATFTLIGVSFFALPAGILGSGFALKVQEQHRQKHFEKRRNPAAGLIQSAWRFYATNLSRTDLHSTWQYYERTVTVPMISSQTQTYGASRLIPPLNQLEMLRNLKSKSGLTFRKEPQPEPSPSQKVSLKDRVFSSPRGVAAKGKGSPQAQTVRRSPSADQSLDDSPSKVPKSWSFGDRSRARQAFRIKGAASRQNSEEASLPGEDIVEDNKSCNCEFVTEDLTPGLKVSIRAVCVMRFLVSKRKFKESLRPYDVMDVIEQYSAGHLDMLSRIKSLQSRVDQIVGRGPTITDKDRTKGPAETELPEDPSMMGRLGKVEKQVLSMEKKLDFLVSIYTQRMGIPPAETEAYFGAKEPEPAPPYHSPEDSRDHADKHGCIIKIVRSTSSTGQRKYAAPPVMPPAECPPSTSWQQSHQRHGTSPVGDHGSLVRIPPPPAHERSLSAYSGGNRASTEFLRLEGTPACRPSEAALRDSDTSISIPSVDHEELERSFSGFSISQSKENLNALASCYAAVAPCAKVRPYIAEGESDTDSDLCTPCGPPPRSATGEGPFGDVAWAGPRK
# KCNQ2 enhance baseline: recorded beside KCNQ2 enhance, whose call it bears; B-score; compound at 10 µM; measured here: initial fluorescence intensity artifact check;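 brightness before thallium and not channel activity; 0 = typical well and far values either way flag optical interference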
# * marks the source's active call; other numbers are inactive results. This is a subset, so the mix of outcomes need not match the whole.
Structure | KCNQ2 enhance | KCNQ2 enhance baseline
N#CCc1ccc(NS(=O)(=O)c2cccs2)cc1 | 0.46 | 0.11
O=C(O)c1cc(-c2ccc(/C=N/Nc3ccc(Cl)cc3)o2)ccc1Cl | 3 | -3
Cc1cn(C2CC3OCC3O2)c(=O)[nH]c1=O (stereo not drawn) | 0.9 | 0.07
CCc1nc2c(sc3nc4c(cc32)COC(C)(C)C4)c(=O)n1CCN(CC)CC | 1.8 | 3.2
COCCOc1cnn(-c2cc(Oc3ccc(C)cc3)ncn2)c(=O)c1Cl | 1.9 | -1.5
NNC(=O)c1ccc(O)cc1O | 0.59 | -0.25
COCc1cc(=O)oc2cc(NC(=O)c3ccc(C(C)(C)C)cc3)ccc12 | 0.84 | 0
CCC(=O)Nc1nnc(S(=O)(=O)N(C)Cc2ccco2)s1 | 1.3 | 0.84
Cc1c(C(C)C)c(=O)n(-c2ccc(S(=O)(=O)N3CCOCC3)cc2)n1C | 2.5 | 0
COc1ccc(NC(=O)Nc2ccc(F)c(F)c2)c(OC)c1 | 0.4 | -0.29
O=C(Nc1ccc(NC(=O)C2CC2)nc1)c1cccc(F)c1 | 2.3 | 0.89
COc1ccc(CNC(=O)CCn2c(=O)c3cccn3c3ccc(F)cc32)cc1 | 0.41 | 0
CCOCCCNC(=S)Nc1ccc(S(N)(=O)=O)cc1 | 0.07 | -0.82
COCC(C)NC(=O)c1ccc(N(C)C)cc1 (stereo not drawn) | 0.95 | 0.21
CCN(CC)C(=O)c1sc(NC(=O)c2ccc(Br)o2)c(C(=O)OC)c1C | 0.04 | 0.86
CSc1ccc(C(=O)C2CCCN(C(=O)c3nonc3C)C2)cc1 (stereo not drawn) | 0.02 | -1.3
Cc1ccc(S(=O)(=O)CC(C)N2CCOCC2)c(S(=O)(=O)CC(C)N2CCOCC2)c1 (stereo not drawn) | 0.37 | 0.7
O=C(NC1CCCCC1)C(c1cccnc1)N(C(=O)c1csnn1)C1CCCC1 (stereo not drawn) | 2 | -1
CC(C)(Oc1ccc(Cl)cc1)C(=O)O | 0.32 | 0.89
O=C(O)c1ccc(COc2ccccc2/C=C2/NC(=O)N(c3cccc(Cl)c3)C2=O)cc1 | 0.13 | -0.49
CCSc1nnc(NC(=O)CCNS(=O)(=O)c2ccccc2F)s1 | 1.2 | -0.05
CC1CCC(NC(=O)CNC(=O)c2cccs2)CC1 (stereo not drawn) | 0.25 | 1.4
Cc1ccc(C)c(N(CC(=O)NN=C2CCN(C)CC2)S(=O)(=O)c2ccccc2)c1 | 0.74 | -0.45
O=C(Cc1ccc(Cl)cc1)Nc1ccc(C(=O)N2CCCCC2)cc1 | 0.43 | 1.1
COc1ccccc1OP(=O)(O)Oc1ccccc1OC | 1.4 | -1
O=Cc1ccc(-c2ccc(F)cc2)o1 | 0.84 | 1.3
O=C(C1CC1)N1CCc2cc(S(=O)(=O)N(CCO)Cc3ccccc3)ccc21 | 1.1 | 0.27
COc1ccc(N2CC(C(=O)Nc3ccc(F)cc3F)CC2=O)cc1 (stereo not drawn) | 0.74 | -1.7
COc1ccc(NS(=O)(=O)c2cccc(NC(=O)CCC(=O)c3ccc(Cl)cc3)c2)cc1 | 1.4 | -2.1
Nc1cccc(NC(=O)CCC(=O)NCc2ccco2)c1 | 0.93 | -1.9
Oc1ccccc1N1CCN(C(=S)NCCc2ccccc2)CC1 | 0.46 | 0.39
COC(=O)[C@H](C)NC(=O)Nc1cccc(C(F)(F)F)c1 | 0.14 | 1.7
CCS(=O)(=O)N1N=C(c2cccc(NS(C)(=O)=O)c2)CC1c1cccs1 (stereo not drawn) | 1.3 | 0.86
CCOC(=O)C(NC(C)=O)(N1CCOCC1)C(F)(F)F (stereo not drawn) | 0.48 | 0.41
COc1ccc(CCNC(=O)CC(=O)N/N=C/c2ccc(Br)cc2)cc1OC | 0.11 | -1.2
CCOc1ccc(OCCC(=O)N(CCC2=CCCCC2)c2c(N)n(Cc3ccccc3)c(=O)[nH]c2=O)cc1 | 1 | -0.15
Cc1csc(N2CCCC2c2nc3cc(C(F)(F)F)ccc3n2CCOCCO)n1 (stereo not drawn) | 1 | 1.5
C/C(=N\NC(=O)Cn1cc([N+](=O)[O-])cn1)c1ccc(O)cc1 | 0.18 | 0.04
CCOc1ccc(CC(=O)NNC(=S)Nc2ccc(OC)c(OC)c2)cc1 | 1.8 | -0.09
COCCOC(=O)c1[nH]c2c(c1C)C(=O)CC(c1ccc(OC)c(OC)c1)C2 (stereo not drawn) | 1.3 | -0.64

# Three entries already listed, arranged by length of the SMILES, falling.
Structure | KCNQ2 enhance | KCNQ2 enhance baseline
O=C(NC1CCCCC1)C(c1cccnc1)N(C(=O)c1csnn1)C1CCCC1 (stereo not drawn) | 2 | -1
CCOCCCNC(=S)Nc1ccc(S(N)(=O)=O)cc1 | 0.07 | -0.82
N#CCc1ccc(NS(=O)(=O)c2cccs2)cc1 | 0.46 | 0.11

# Additional compounds follow:
Structure | KCNQ2 enhance | KCNQ2 enhance baseline
COc1cc(OC)c(OC)cc1CNCc1ccco1 | 2 | -1
COc1ccc(CN(CC(=O)NCc2ccccc2)C(=O)CCC(=O)Nc2ccccn2)cc1 | 0.49 | 4.3
C/C(=N\OCC(=O)Nc1ccccc1C(=O)O)c1cccs1 | 0.2 | 0.76
CCc1ccc(CNC(=O)C2CCN(S(=O)(=O)N3CCC4(CC3)OCCO4)CC2)cc1 | 1.6 | 2.7
CCCCOC(=O)c1cc(=O)[nH]c2ccc(C)cc12 | 0.78 | -1.1
CS(=O)(=O)N(Cc1ccccc1)c1ccc(C(=O)Nc2ccc3c(c2)OCO3)cc1 | 1 | 1.8
CC(=O)Nc1ccc(S(=O)(=O)NCC2CCC(C(=O)NCCC3=CCCCC3)CC2)cc1 (stereo not drawn) | 0.46 | -2.3
CSc1cccc(NC(=O)CC(C)n2ccnc2)c1 (stereo not drawn) | 0.09 | 0.6
CCOC(=O)c1ccc(NS(=O)(=O)c2ccc(SC)cc2)cc1 | 0.86 | -0.29
O=S(=O)(c1cccc(-c2nn3c(-c4ccncc4)nnc3s2)c1)N1CCOCC1 | 0.21 | 0.47
COc1ccc(NC2c3ccccc3C(=O)N2c2cccnc2)cc1Cl (stereo not drawn) | 0.56 | 0.45
COc1ccc(-c2ccc(-c3nnn(CC(C)=O)n3)cc2)cc1 | 0.2 | 1.5
O=C(NCc1ccc2c(c1)OCO2)c1nn2cccnc2c1Cl | 0.02 | 0.2
CCc1ccc(/C=C2/C(=O)NC(=O)N2C(C)=O)cc1 | 0.23 | 0.81
Nc1nc2n(n1)C(c1ccccc1Cl)CC(c1ccc(F)cc1)N2 (stereo not drawn) | 0.03 | 1.9
CCCCNC(=S)NC(=O)c1ccccc1Br | 1.4 | 1.4
CC1CN(C(=O)c2cc3cc(Cl)cc(Cl)c3oc2=O)CC(C)O1 (stereo not drawn) | 0.29 | 1.1
C=CCn1c(=O)c2ccccc2n2c(SC(C)C(N)=O)nnc12 (stereo not drawn) | 0.74 | -2.8
COc1ccc(S(=O)(=O)N2CCCCCC2)cc1C(=O)N(C)Cc1ccc(OC)c(OC)c1OC | 0.21 | -1.2
COc1cc2c(cc1OC)C(c1ccc([N+](=O)[O-])cc1)NC(=O)C2 (stereo not drawn) | 1.1 | 0.16

# (cont.)
# Below each SMILES: KCNQ2 enhance | KCNQ2 enhance baseline
- O=C(CN1CCN(c2ccccc2O)CC1)NCCCc1ccccc1
    0.03 | 0.09
- O=C(Nc1ccc(-c2nnn(CC(=O)N3CCN(C(=O)c4ccco4)CC3)n2)cc1)c1ccccc1F
    0.03 | 1.1
- CCc1cccc(NC(=O)C2CCN(S(=O)(=O)c3cccs3)CC2)c1
    0.02 | 0.13
- O=C1C(=O)N(CCN2CCCCC2)c2ccccc21
    1.1 | 0.4
- COC(=O)c1ccc(Cn2cc(Cl)cn2)o1
    0.6 | -0.57
- CC(C)(C)c1ccc(-c2nnc3sc(-c4ccccn4)nn23)cc1
    1.1 | -1.3
- O=C(COc1ccc(Br)cc1)N(CCO)CCO
    0.57 | -1.1
- O=C(O)CC(Cc1ccc(Cl)cc1)C(=O)NCC12CC3CC(CC(C3)C1)C2 (stereo not drawn)
    1.4 | -2.2
- CCOc1ccc(NC(=S)NC(=O)/C=C/c2ccco2)cc1
    0.05 | -0.07
- CC(NC(=O)CCl)c1ccc(Cl)c(Cl)c1 (stereo not drawn)
    2.4 | -0.25
- O=C(CSc1nc2ccccc2c(=O)[nH]1)N1CCCCC1
    1.2 | 2.9
- CCOC(=O)N1CCN(C(=O)c2ccc(N(Cc3ccccc3Cl)S(C)(=O)=O)cc2)CC1
    1.5 | 0.07
- COc1ccc(Cc2c(O)nc[nH]c2=O)cc1
    0.03 | -0.37
- COC(=O)c1cc(=O)c2c([N+](=O)[O-])ccc(OC)c2o1
    0.26 | 0.99
- Cc1ccc(C(=O)NC2CCCc3c2cnn3-c2ccc(F)cc2F)cn1 (stereo not drawn)
    1.8 | -0.18
- Cc1cc(C(=O)OCC(=O)N2C(C)CCCC2C)c(C)o1 (stereo not drawn)
    0.24 | -0.33
- Cc1ccccc1N1C(=O)C2C3C=CC(C2C1=O)N(C)C3=O (stereo not drawn)
    2.2 | -0.53
- Cc1cccc(C(=O)NC(=S)N(C)C2CCCCC2)c1
    3.4 | 0.36
- COc1ccc(-c2cc(-c3cc(OC)ccc3O)[nH]n2)cc1
    1.5 | -1.6
- COc1ccc(N2CCN(C(=O)NCc3ccc(OC)c(OC)c3)CC2)cc1
    1.8 | -0.21
- COc1cc(C(C(=O)NC(C)(C)C)N(Cc2ccc3c(c2)OCO3)C(=O)c2cnccn2)cc(OC)c1OC (stereo not drawn)
    1.7 | -1.4
- O=C(c1ccco1)c1cn[nH]c1-c1ccc(Cl)cc1O
    0.22 | -0.31
- CCCCOc1ccc(/C(O)=C2/C(=O)C(=O)N(CCCOC)C2c2ccncc2)cc1 (stereo not drawn)
    1.3 | -0.57
- O=C(c1cc(COc2ccc3ncccc3c2)on1)N1CCC[C@H]1CO
    0.11 | 0.4
- COc1nc(SCC(=O)Nc2ccccc2Cl)nc(N(C)C)n1
    0.45 | 0.69
- CN1C(=O)c2ccccc2N(C)C1c1cccs1 (stereo not drawn)
    1.4 | 0.59
- CCc1ccc(NC(=O)c2ccc(-n3cncn3)c([N+](=O)[O-])c2)cc1
    2.2 | -0.22
- Cc1nn(-c2ccccc2Cl)c(Cl)c1/C=N/Nc1nc2ccccc2s1
    2.4 | -0.88
- O=C(Nc1ccc(S(=O)(=O)N2CCOCC2)cc1)c1ccc(S(=O)(=O)N2CCOCC2)cc1
    0.09 | -0.05
- Cn1c(SCc2ccccc2F)nc2ccccc2c1=O
    0.71 | 0.48
- COc1ccc(Nc2nc3ccccc3n2C)cc1
    1.9 | -0.53
- CCCOc1ccc(-c2nc(C#N)c(N3CCC(C(N)=O)CC3)o2)cc1
    2 | -0.96
- C/C(CC(=O)Nc1ccc(N(C)C)cc1)=N\NC(=O)c1ccncc1
    0.38 | -0.22
- CN(CC(=O)Nc1cccc(F)c1)CC(=O)Nc1cccc(S(N)(=O)=O)c1
    0.14 | 0.02
- C=CCOc1c(Br)cc(/C=N/Nc2ccc(C(=O)O)cc2)cc1OCC
    2.3 | -1.6
- COc1cc(Cl)c(C)cc1NC(=O)c1ccccc1NC(=O)CN1CCOCC1
    2 | -1.4
- CCC(=O)Nc1ccc(C(=O)c2ccccc2)cc1
    1.1 | -0.56
- Cc1cccc(C)c1NC(=O)NN(C(=O)c1ccccc1)C(C)(C)C
    0.4 | 1.4
- Nc1ccc2c(c1)COC2=O
    1.7 | 0.52
- Nc1ccccc1NC(=O)CCn1c(=S)[nH]c2ccccc2c1=O
    0.64 | 0.78
- COc1ccccc1-c1nc(SCC(=O)NCC2CCCO2)c2c(=O)n(C)c(=O)n(C)c2n1 (stereo not drawn)
    0.07 | 0.33
- NC(=O)c1ccc[n+](CC(=O)OCCC23CC4CC(CC(C4)C2)C3)c1
    1.6 | 0.02
- COc1ccccc1-c1nn2c(-c3ccco3)nnc2s1
    0.08 | -1.1
- CCC1(CC)C(=O)NN(c2ccccc2)C1=O
    0.54 | -1.3
- CCN(CC)C(=S)SC1=CCS(=O)(=O)C1
    0.87 | -4.3
- CCOC(=O)c1ccc(NC(=S)NCCc2ccc(OC)c(OC)c2)cc1
    2.3 | -0.15
- CCCCn1ccnc1C(=O)c1cc(S(=O)(=O)N2CCOCC2)ccc1C
    1.8 | 0.48
- Cc1ccccc1/C=N/n1c(C2CCCCC2)n[nH]c1=S
    0.04 | 0.47
- CCn1c(SCC(=O)C(C)(C)C)nnc1-c1cccnc1
    0.14 | 0.44
- CCN(CC)CCn1c(-c2ccc(C)cc2)nc(=S)c2c1CC(C)(C)OC2
    0.59 | 0.69
- O=C(/C=C/c1ccc(N2CCCCC2)c([N+](=O)[O-])c1)c1ccc(O)cc1
    1.6 | -0.02
- CCCc1cc(=O)oc2cc(C)cc(OC(C)C(=O)NCC3CCC(C(=O)O)CC3)c12 (stereo not drawn)
    2.3 | 0.28
- O=[N+]([O-])c1ccc(CNc2cccc(Cl)c2)s1
    0.04 | 0.22
- CC(C)Sc1ccccc1C(=O)Nc1ccc2c(c1)n(C)c(=O)n2C
    0.46 | -1.4
- CC1(c2ccc3c(c2)OCO3)NC(=O)N(CC(=O)NCCC2=CCCCC2)C1=O (stereo not drawn)
    1.1 | -0.91
- CCn1cc(C(=O)O)c(=O)c2cc(OC)ccc21
    0.86 | 1.9
- CCOC(=O)CN(C(=O)CNC(=O)c1ccco1)C(C(=O)NC1CCCCC1)c1cccs1 (stereo not drawn)
    2.2 | -0.32
- O=C(CCSc1nnc(-c2ccncc2)o1)Nc1ccc(Cl)cc1
    0.2 | -1.1
- O=c1[nH]c2ccccc2n1C1CCCCC1
    0.44 | -0.46

# Molecules listed so far that have a cyano group (2):
# Below each SMILES: KCNQ2 enhance | KCNQ2 enhance baseline
- N#CCc1ccc(NS(=O)(=O)c2cccs2)cc1
    0.46 | 0.11
- CCCOc1ccc(-c2nc(C#N)c(N3CCC(C(N)=O)CC3)o2)cc1
    2 | -0.96

# Source: PubChem
